# 2A StopGo: lowers the luciferase signal of an FMDV 2A StopGo reporter; human cells with a luciferase reporter of 2A StopGo recoding; control for the full effect not named in the record; Potency, µM (highest dose often 57.9 µM), for inactives: at the highest dose signal change, negative = less light; 410,000 compounds, 1.2% hits; active = well fitted falling curve with a large enough effect; inconclusive = small, poorly fitted or top-dose-only effect; inactive = no such curve, though single readings can be large or run the other way; tested in HEK293T cells; note: nearly all actives have a fitted effect of over 45% in size; luciferase light after 4 h
# RE007 growth inh: less growth of the S. pombe RE007 Vpr strain; S. pombe RE007 Vpr strain, BacTiter-Glo ATP luminescence, 24 h; control for the full effect not named in the record; Potency, µM (doses to about 92.2 µM), for inactives: at the highest dose activity change, negative = less growth; 360,000 compounds, 0.21% hits; active = well fitted falling curve with a large enough effect; inconclusive = small, poorly fitted or top-dose-only effect; inactive = no such curve, though single readings can be large or run the other way;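 note: nearly all actives have a fitted effect of over 50% in size; the assay follows cell death caused by Vpr and the record does not say whether a fall means rescue or toxicity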
#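 Fission yeast strain RE007, carrying one chromosomally integrated HIV-1 vpr copy, was seeded at OD 0.01 in PMG+AL medium with 23 nL pinned compound. After 24 h at 30 °C and 99% humidity, viability was read by BacTiter-Glo luminescence.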
# * marks the source's active call; other numbers are inactive results; ? = inconclusive; [ ] = remark or other dose. % is set by controls: 0 for no effect and ±100 for the full control effect; potency is the fitted concentration of half-maximal effect.
compound | 2A StopGo | RE007 growth inh
CC(C)c1ccc(CC(=O)N2CCC2(C)C(=O)Nc2ccccc2)cc1 (stereo not drawn) | -25% | -11%[18.4 µM]
OC(c1ccc(F)cc1)c1ncc(-c2cccc(C(F)(F)F)c2)[nH]1 (stereo not drawn) | 31%[activator] | 16%
Cc1ccc(S(=O)(=O)N2[C@H](CC(=O)c3cccs3)OC[C@@H]2C)cc1 | -1% | -5%
OC(c1ccco1)c1nc(-c2ccc(F)c(Cl)c2)cs1 (stereo not drawn) | 38%[activator] | -8%
C[C@@H]1CN([C@H](C)CO)C(=O)CCCn2nncc2CO[C@H]1CN(C)C(=O)NC1CCCCC1 | -13% | -4%
O=C(NC1CC1)C1Nc2ccc(OC(F)(F)F)cc2C2C=CCC12 (stereo not drawn) | -19% | 23%
O=C(Nc1cc(Cl)cc(Cl)c1)N[C@@H]1CC[C@@H](CCNS(=O)(=O)c2cccc(F)c2)O[C@@H]1CO | ? | -10%
C#CCOCCOCCOCCNc1nc(N2CCN(C(=O)[C@H](C)n3cc(CCC(=O)O)nn3)CC2)nc(N2CCN(C(=O)[C@H](CCCCN)n3cc(CCCC)nn3)CC2)n1 | -14% | 7%
O=C(OCc1ccccc1)N1CCC2CC1c1c(Cl)cccc12 (stereo not drawn) | 58%[activator] | -11%
COC(C[C@H]1O[C@@H]1[C@H](O)[C@H](C)OCc1ccccc1)OC | -10% | 6%
Cc1ccccc1CN(C)C[C@H]1OCc2cnnn2CCCC(=O)N([C@@H](C)CO)C[C@@H]1C | -15% | -1%
CC(C)C[C@H]1CNC(=S)N1CC1CCN(CCC2CCCC2)CC1 | -13% | ?
CC(C)Cc1ccc(-c2ccc3nccn3c2)cc1 | 17% | -25%
O=C1CC2(CCCC2)C(=O)N1CN1CCN(S(=O)(=O)c2cc(F)ccc2F)CC1 | -20% | -3%
COc1cc(NC(=O)C(C)(C)C)c(C(=O)OCC(=O)Nc2cc(C)on2)cc1OC | 0% | 12%
CCOC(=O)[C@]12CCCC=C1N(Cc1ccco1)C(=O)[C@H](CC(=O)NCCC(C)C)C2 | 30%[activator] | -2%

# The last 6 records of the section before open the next one:
compound | 2A StopGo | RE007 growth inh
Cc1ccccc1CN(C)C[C@H]1OCc2cnnn2CCCC(=O)N([C@@H](C)CO)C[C@@H]1C | -15% | -1%
CC(C)C[C@H]1CNC(=S)N1CC1CCN(CCC2CCCC2)CC1 | -13% | ?
CC(C)Cc1ccc(-c2ccc3nccn3c2)cc1 | 17% | -25%
O=C1CC2(CCCC2)C(=O)N1CN1CCN(S(=O)(=O)c2cc(F)ccc2F)CC1 | -20% | -3%
COc1cc(NC(=O)C(C)(C)C)c(C(=O)OCC(=O)Nc2cc(C)on2)cc1OC | 0% | 12%
CCOC(=O)[C@]12CCCC=C1N(Cc1ccco1)C(=O)[C@H](CC(=O)NCCC(C)C)C2 | 30%[activator] | -2%
O=C(NC(=S)Nc1cccc(O)c1)C12CC3CC(CC(C3)C1)C2 | 37%[activator] | -12%
COc1ccc(NC(=O)C[C@H]2C(=O)N(CCc3ccccc3)C[C@@H]2c2ccc(OC)cc2)cc1 | 15% | -9%
COc1ccc([C@@H]2Sc3ccccc3NC(=O)[C@@H]2O)cc1 | -7% | 15%
O=c1[nH]cnc2c1ccn2C1OC(CO)C(O)C1O (stereo not drawn) | -14% | 8%
CC1(C(=O)NCCc2c[nH]c3ccccc23)CCN1CC1CCCCC1 (stereo not drawn) | -22% | -22%
CCCCC[C@H](C)N1C[C@H](COCc2ccccc2)Oc2cc(N3CC[C@@H](O)C3)ccc2S1(=O)=O | 14% | -20%
NC(=O)c1ccccc1N | -14% | -4%
CC(=O)Nc1ccc(NC(=O)COC(=O)c2ccc(S(=O)(=O)N(C)c3ccccc3)cc2)cc1 | -8% | 10%
O=c1oc(-c2ccc(Cl)cc2[N+](=O)[O-])nc2ccccc12 | 28% | 5%
COc1ccc2oc(C(=O)OCC(=O)Nc3ccc(C)c(S(=O)(=O)N4CCOCC4)c3)c(C)c2c1 | 53%[activator] | 2%
CC1(C)OC2COC(c3[nH]nc4c(=O)[nH]c(=O)[nH]c34)C2O1 (stereo not drawn) | 5% | -16%
CCc1ccc(C(O)c2ncc(-c3cccc(F)c3)[nH]2)cc1 (stereo not drawn) | 50%[activator] | -19%[18.4 µM]
CC(C)(C)CC(C)(C)N=C1Nc2cc(Cl)c(Cl)cc2NC12C[C@H]1CCC(=O)N3CC[C@@H](C2)[C@@H]13 (stereo partly drawn) | -29% | -2%
COc1cccc(-c2cc3nc(C)cc(N4CCN(C(=O)c5ccoc5)CC4)n3n2)c1 | -27% | -13%
CC1(c2nnnn2-c2ccc3c(c2)OCCO3)CCC(=O)N1CCOc1ccccc1 (stereo not drawn) | -8% | 6%
COCc1cccc(-c2csc(C(O)c3ccc(F)c(OC)c3)n2)c1 (stereo not drawn) | ? | 11%
CN1CCC2CC1c1cc(-c3ccc(C(F)(F)F)cc3)ccc12 (stereo not drawn) | -24% | -9%
O=C(Cc1ccc(NC(=O)C2CCN(C(=O)C3CC3)CC2)cc1)Nc1cccc(C(=O)N2CCCC2)c1 | -15% | 6%
COc1cc(-c2ccc3cc(OC)c(OC)c(OC)c3c2)cc(OC)c1OC | ? | -13%
Cc1c(NC(=O)c2cccc(NC(=O)C(C)Oc3ccccc3)c2)c(=O)n(-c2ccccc2)n1C (stereo not drawn) | -26% | 0%
COc1ccc(C(C#N)CC(=O)c2ccc(OC)c(OCc3ccccc3)c2)cc1OC (stereo not drawn) | ? | 8%
COc1ccc(S(=O)(=O)N(C)C[C@H]2OCc3cnnn3CCCC(=O)N([C@H](C)CO)C[C@H]2C)cc1 | 1% | 41%
CC(=O)Nc1cc(-c2cccc(NS(C)(=O)=O)c2)cn2c(-c3ccc(F)c(Cl)c3)cnc12 | -15% | 2%[18.4 µM]
CC1(C(=O)Nc2ccc(F)cc2F)CCN1C(=O)Cc1ccccc1Cl (stereo not drawn) | -8% | 6%
CCOC(=O)N1CCN(C(=O)C[C@@H]2C[C@@]3(C(=O)OCC)CCCC=C3N(Cc3ccc4c(c3)OCO4)C2=O)CC1 | -13% | -10%
O=C(COC(=O)Cc1ccc(Cl)c(Cl)c1)NCCc1ccccc1 | -19% | -3%
CC(C)=CCn1c2ccc(NC(=O)Nc3ccc(N(C)C)cc3)cc2c(=O)n1C | -13% | 2%
CC(C)C[C@@H](CN)NC(=O)c1nc[nH]c1C(=O)N[C@@H](C)C(=O)CNC[C@H](CC(C)C)NC(=O)c1nc[nH]c1C(=O)N[C@@H](CC(=O)O)C(=O)O | -18% | 21%
Cc1[nH]ccc2cc3nc4ccccc4c3cc12 | -20% | -25%
O=C1OCCC1=COCCOC=C1CCOC1=O | -22% | -6%
O=C(NCc1ccc2c(c1)OCO2)OCc1ccccc1 | 41%[activator] | 8%
Cc1ccccc1NC(=O)COC(=O)c1ccc(C)c(S(=O)(=O)N2CCCCC2)c1 | -4% | 7%
C#CCN(C[C@H]1[C@H](OC(=O)NC2CCCC2)[C@H](OC(=O)NC2CCCC2)C[C@@H](C(=O)OC)[C@H]1C(=O)OC)S(=O)(=O)c1ccc(C)cc1 | ? | -11%
Cc1ccc(-n2ncc3c(=O)n(-c4cccc(C)c4)c(=O)[nH]c32)cc1 | 22% | -23%
COCC(O)Cn1ccnc1N=Nc1ccccc1 (stereo not drawn) | 10% | 8%[18.4 µM]
O=C(CNc1ccc(Br)cc1)Nc1ccc(S(=O)(=O)N2CCCCC2)cc1 | 8% | -10%
O=C(NCc1ccc(Cl)cc1)c1ccc(-c2ccc(F)c(F)c2)c2ccoc12 | -13% | 12%
COc1ccccc1C(=O)C1CCCN(C(=O)c2ccc(Cl)cc2)C1 (stereo not drawn) | -12% | 7%
CCCCNC(=O)OC1CC2CC1[C@H]1CCCCN1C2=O (stereo partly drawn) | -14% | 8%
O=C(COC(=O)c1n[nH]c(=O)c2ccccc12)Nc1cccc(S(=O)(=O)N2CCOCC2)c1 | -17% | 5%
CCCNC(=O)C1(C)CCCN(C(=O)Cc2ccc(OC)cc2)C1 (stereo not drawn) | -8% | 12%
CC(C)CNC(=O)C1Nc2ccc(OC(F)(F)F)cc2C2C=CCC12 (stereo not drawn) | 10% | -9%
COc1ccc(Cl)c(CNC[C@H]2O[C@@H](n3cnc(C(N)=O)n3)[C@H](O)[C@@H]2O)c1 | -12% | -12%
O=C(NCCc1ccccc1)Nc1nnc([C@H]2C[C@H](O)[C@@H](CO)O2)s1 | -3% | 5%[18.4 µM]
Cc1cccc(C)c1NC(=O)Nc1nnc([C@@H]2C[C@H](O)[C@@H](CO)O2)s1 | -19% | -4%[18.4 µM]
Cc1cccc(C)c1C(O)c1ncc(-c2ccc(F)cc2)[nH]1 (stereo not drawn) | 2% | -16%
CCCc1nc2ccc(Cl)cn2c1Cc1ccccc1OC | -5% | -27%
CN(C(=O)c1ccc(Cl)cc1)c1ccc(OCC(=O)Nc2cc(C(=O)O)ccc2Cl)cc1 | -12% | -3%
CC1CCCN(CCCNC(=O)c2ccc3c(c2)N(Cc2cccc(Cl)c2)C(=O)c2ccccc2S3=O)C1 (stereo not drawn) | -1% | -9%
COCCN(Cc1ccc(C)cc1)C(=O)[C@H]1O[C@@H](n2cnc3c(N)ncnc32)[C@H](O)[C@@H]1O | -23% | 1%
C(=C\c1ccccc1)/CN1CCN(C(c2cccc3ccccc23)c2nnnn2-c2ccc3c(c2)OCCO3)CC1 (stereo not drawn) | -1% | -7%
COC(=O)[C@]12CCCCC=C1N(CCC1=CCCCC1)C(=O)[C@H](CC(=O)NCc1ccccc1)C2 | -13% | -6%
CCc1ccc([C@@H]2CC(=O)[C@@H]3CN(S(=O)(=O)c4ccc(Cl)cc4)[C@H](c4ccc(C)cc4)C[C@@H]3N2S(=O)(=O)c2ccc(C)cc2)cc1 | -26% | -6%
Nc1nc2ccccc2n1S(=O)(=O)c1ccc([N+](=O)[O-])cc1 | -26% | -20%
Cc1ccc(C(=O)OCC(=O)Nc2ccc(C)c(S(=O)(=O)N3CCCCC3)c2)c(O)c1 | ? | -7%
Cc1cccc(C)c1NC(=O)C1(C)CSCC(=O)N1CCc1c[nH]c2ccccc12 (stereo not drawn) | 5% | -8%

# Continuation:
compound | 2A StopGo | RE007 growth inh
CN1CCN(c2ccc(CNC(=O)c3cccc4c(-c5ccc(F)c(F)c5)coc34)cc2)CC1 | -18% | -17%
CCOC(=O)C1(C)CCN1C(=O)c1ccc(SC(F)(F)F)cc1 (stereo not drawn) | -13% | 7%
CCCCCCCCCCCCN1[C@@H](CC(C)=O)c2cc(F)ccc2S1(=O)=O | -27% | -2%
COc1ccc(Nc2nnc(SCC(=O)NC3CCCC3)s2)cc1 | 17% | -10%
Cc1nc(C(F)(F)F)ccc1C(=O)N1CCC1(C)C(=O)NS(=O)(=O)c1ccc2ccccc2c1 (stereo not drawn) | 6% | 3%[18.4 µM]
COC(=O)C1=C(c2cc3ccccc3o2)C[C@@H]2CC[C@H]1N2C(=O)N1CCC(C)CC1 | ? | 2%
O=C(Nc1ccc2c(c1)OCCO2)C(c1ccnc2ccccc12)N1CCN(c2ccc(F)cc2)CC1 (stereo not drawn) | -7% | 8%
COC(=O)C1=CN(c2ccc(F)cc2)C(N)=C(C#N)C1c1cccc(F)c1 (stereo not drawn) | -14% | -6%
CC1=C(C(=O)N2CCOCC2)CC(CC(=O)NC2CC2)C(=O)N1Cc1ccccc1 (stereo not drawn) | -22% | -2%
CCCCc1ccc(S(=O)(=O)NC(=O)C2(C)CCN2C(=O)C/C=C/c2ccccc2)cc1 (stereo not drawn) | -14% | -8%[18.4 µM]
O=c1[nH]c(=S)[nH]c2c1C(c1ccc(Cl)c(Cl)c1)OC(CCc1ccccc1)C2 (stereo not drawn) | ? | 6%
CS(=O)(=O)c1ccc(Nc2nc(C(N)COCc3ccccc3)cs2)cc1 (stereo not drawn) | -6% | 33%[18.4 µM]
CCOC(=O)C1(C)CCCN1C(=O)c1ccc(N(C)C)cc1 (stereo not drawn) | -14% | 6%
Cc1ccccc1C(=O)OCC(=O)Nc1cccc(S(=O)(=O)N2CCCCC2)c1 | -14% | -4%
COC(=O)C1=C(c2ccccc2)C[C@@H]2CC[C@H]1N2C(=O)NCc1ccccc1 | 1% | 3%
Cn1nc(C(C)(C)C)cc1C(=O)N1CCCCC1c1cc(C(=O)N2CCOCC2)no1 (stereo not drawn) | -25% | -5%[18.4 µM]
COc1ccc(CN2Cc3cc(N4CCOCC4)ccc3-n3nncc3C2)cc1 | -11% | 11%
CCN(C(=O)COC(=O)C1COc2ccccc2O1)c1c(N)n(Cc2ccccc2)c(=O)[nH]c1=O (stereo not drawn) | -13% | 3%
Cc1ccc(S(=O)(=O)N(C)C)cc1NC(=O)CN1C(=O)NC2(CCc3ccccc32)C1=O (stereo not drawn) | -12% | -9%
CCOc1ccc(S(=O)(=O)N2CCOCC2)cc1NC(=O)CN1C(=O)NC(C)(C2CC2)C1=O (stereo not drawn) | 3% | -3%
COc1ccc2c(c1)C1OCCNC1CC2 (stereo not drawn) | 1% | -7%
CC(C)S(=O)(=O)NC(=O)C1(C)CCN1C(=O)Cc1ccccc1Cl (stereo not drawn) | -19% | -16%

# Bioassay records: PubChem BioAssay, National Center for Advancing Translational Sciences (NCATS)

# Not all compounds are listed; rates above refer to the full screens.
